Bioassay records deposited in PubChem BioAssay by several laboratories.
A1 inh: inhibitors of the anti-apoptotic protein A1, read as caspase activation. MEF A1-2A-BIM cells, Caspase-Glo 3/7 luminescence, 3 h; percent of clofoctol response, vehicle zero. actives 0.066% (n = 330,000). AID 2462. caspase activation, % (concentration not given with the values);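 active means over half of replicate activation scores above 10%, or exactly half above 10 with the replicate mean above 10; inconclusive means replicate mean below 10 yet half the replicates above 10; inactive means over half of replicates below 10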;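 further: wells of about 30 µL received 50 nL stock; many hits fall short of the cut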
LANA-H2B inh: blocks KSHV LANA binding to histone H2A/H2B; cell-free LANA-H2A/H2B peptide, fluorescence polarization; inhibition, % (concentration not given with the values); actives 0.6% (n = 320,000); AID 2629; in the data active means inhibition mostly above about 10%, no sharp cut-off; inactive means mostly below about 6.7%;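 further: stock transfer was 7.5 nL into about 10 µL; 0% = median of vehicle wells and 100% = median of positive control wells; one replicate is shown; the record names a cut of 25% in any replicate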
Target sequence (Q9QR71 whole entry, looked up): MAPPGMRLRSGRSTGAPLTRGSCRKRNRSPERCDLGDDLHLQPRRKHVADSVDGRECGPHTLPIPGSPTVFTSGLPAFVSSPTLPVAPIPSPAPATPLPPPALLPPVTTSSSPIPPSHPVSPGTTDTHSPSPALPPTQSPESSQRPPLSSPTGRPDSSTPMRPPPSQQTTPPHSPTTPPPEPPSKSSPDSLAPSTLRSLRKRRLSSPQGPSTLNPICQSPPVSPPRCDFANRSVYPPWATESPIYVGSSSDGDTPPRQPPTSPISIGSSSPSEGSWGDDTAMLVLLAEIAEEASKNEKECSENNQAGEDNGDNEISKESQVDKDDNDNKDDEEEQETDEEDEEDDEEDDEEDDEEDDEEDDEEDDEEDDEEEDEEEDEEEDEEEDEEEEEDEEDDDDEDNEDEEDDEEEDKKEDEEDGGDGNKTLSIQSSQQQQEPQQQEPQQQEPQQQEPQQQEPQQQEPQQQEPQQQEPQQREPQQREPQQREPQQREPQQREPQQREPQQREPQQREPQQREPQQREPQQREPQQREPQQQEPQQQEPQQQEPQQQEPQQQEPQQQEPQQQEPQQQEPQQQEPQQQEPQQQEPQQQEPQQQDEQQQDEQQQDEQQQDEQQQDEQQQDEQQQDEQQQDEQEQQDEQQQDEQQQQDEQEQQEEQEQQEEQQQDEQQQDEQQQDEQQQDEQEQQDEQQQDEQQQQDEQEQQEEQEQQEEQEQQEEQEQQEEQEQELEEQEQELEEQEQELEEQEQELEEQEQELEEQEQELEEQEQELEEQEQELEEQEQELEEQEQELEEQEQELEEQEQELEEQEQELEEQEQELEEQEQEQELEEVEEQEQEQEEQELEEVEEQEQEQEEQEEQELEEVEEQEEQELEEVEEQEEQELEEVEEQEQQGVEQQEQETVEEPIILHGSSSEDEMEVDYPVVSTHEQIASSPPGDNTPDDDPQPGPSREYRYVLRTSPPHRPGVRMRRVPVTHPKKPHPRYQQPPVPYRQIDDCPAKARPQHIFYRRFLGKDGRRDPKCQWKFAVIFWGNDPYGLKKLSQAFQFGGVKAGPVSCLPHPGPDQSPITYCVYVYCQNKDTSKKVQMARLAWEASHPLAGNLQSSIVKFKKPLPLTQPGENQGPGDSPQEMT
B2AR ag: activates human beta-2 adrenergic receptor causing internalization; P07550; Am2.2-beta2AR cells, FAP receptor internalization, flow cytometry; reference of the scale not given here; response, % (no concentration beside the values); actives 0.43% (n = 340,000); AID 504454;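 active means response above a set limit, near 3 SD of response in nonfluorescent compounds, cut at about 42% in these data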;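 further: stock transfer was 100 nL into about 11 µL; a reference agonist was the positive control; negative values mostly stem from fluorescent compounds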
UCH37 DUB inh: inhibitors of human deubiquitinating enzyme UCH37; AID 588478; inhibition, % (test concentration not listed); Q9Y5K5; actives 0.33% (n = 330,000); purified proteasome/UCH37, Ub-AMC cleavage fluorescence;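 active means mean of two replicates above 20%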;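 further: 0% = compound-free wells with enzyme and 100% = wells lacking proteasome; stock transfer was 100 nL into about 20 µL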
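Assay system: Proteasome-bound UCH37. Buffer or medium: pH 7.4 Tris-HCl (50 mM) with ovalbumin, ATP-MgCl2, DTT. Incubation: 30 min preincubation with enzyme, 25 min cleavage at room temperature. Measured by: fluorescence, ex 355 nm, em 460 nm. Read-out basis: percent inhibition. Control set: wells without proteasome as full block, compound-free enzyme plus substrate as uninhibited.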
HNF4A DNA FP: change in binding of human HNF4 alpha to DNA. HNF4a-FITC DNA binding, fluorescence polarization, 1 h. activity change, % at 10 µM. actives 0.3% (n = 360,000). AID 1224865; in the data active means activity change above about 30%, passing the limit was not always enough;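 further: controls were the assay level and a saturating level of protein; the project sought stronger binding though the title names inhibitors; some compounds called inactive have numbers as strong as hits; positive values seem to mean higher polarization but the record does not say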
Vif TR-FRET: inhibitors of Vif binding to APOBEC3G peptide, primary screen, biochemical, TR-FRET, GST-Vif 1-94, biotin-A3G peptide, dose response retest (AID 1117319); actives 0.57% (n = 260,000); one-dose inhibition, %; IC50 in µM for titrated hits; TR-FRET GST-Vif / biotin-A3G peptide binding; higher % means a stronger effect; test concentration not given here; strong numbers were not always called active;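 active means above the screen mean plus three standard deviations and confirmed in dose response; inconclusive means results disagree or hit not tested in dose response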;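 further: Vif residues 1-94 fused to GST binding biotinylated APOBEC3G peptide 110-148; 0% = full assay without inhibitor and 100% = GST in place of GST-Vif; retest series ran down from 100 µM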
E coli growth: E. coli growth inhibition | OD600 absorbance (test concentration not listed) | actives 0.21% (n = 330,000) | Escherichia coli growth, OD600, 23 h; hits give low values;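 active means OD600 absorbance below the run mean of sample wells minus 3.6 SD, in any replicate, cut at about 0.56 in these data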;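 further: stock transfer was 300 nL into about 60 µL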
Numbers without * were called inactive; i = inactive; ? = inconclusive; . = no result given; & = joins results of further samples.

SMILES	A1 inh	LANA-H2B inh	B2AR ag	UCH37 DUB inh	HNF4A DNA FP	Vif TR-FRET	E coli growth
O=C1CCN(Cc2cccnc2)CCN1[C@H](CO)Cc1ccccc1	0.2	4.8	0	0.0	3.9	.	.
CC(C)(C)c1nnc2sc(SCC(=O)NCc3ccco3)nn2c1=O	1.5	0.9	5	0.6	-0.7	-4%	0.7
COC(=O)[C@]1(C)N[C@H](CN(C)S(=O)(=O)c2ccc(F)cc2)[C@@H]2C(=O)N(Cc3ccccc3)C(=O)[C@@H]21	.	.	-6	5.3	2.0	1%	0.71
Cn1ccc(NC(=O)Nc2ccc(Cl)cc2)n1	-0.5	4.0	-10	0.3	4.5	10%	0.65
CNC(=O)c1ccccc1Sc1ccccc1C#N	-0.4	1.3	1	0.7	1.4	4%	0.71
NNc1nc2ccc(F)cc2s1	0.5	-0.4	0	3.7	0.2	.	0.69
O=C(NC1CCN(S(=O)(=O)c2ccc(F)cc2)CC1)c1ccccc1	0.0	2.3	-9	3.2	-20	.	0.73
CCOC(=O)N1CCN(C(=O)c2c[nH]c3ccc(S(=O)(=O)N(C)c4ccc(OCC)cc4)cc3c2=O)CC1	-0.4	-1.4	-2	-1.4	4.0	.	0.71
CN(C)c1ncnc2c1ncn2CCn1cnc2c(N(C)C)ncnc21	.	.	-8	-0.6	-3.0	5%	0.65
O=C(COc1ccccc1)Nc1ccc(NC(=O)c2ccco2)cc1	-1.6	-9.1	-16	0.4	1.7	.	0.58
COc1cccc(-c2nc(-c3cccs3)no2)c1	-15	3.3	-8	0.6	1.7	82%	0.67
COc1ccc(C(c2nnnn2C2CCCC2)N2CCC(C(N)=O)CC2)c(OC)c1 (stereo not drawn)	.	.	-4	5.9	-3.6	24%	0.72
CN1C2CCC1CC(NC(=O)c1cc(Cl)cc3[nH]cnc13)C2 (stereo not drawn)	-0.9	-2.6	-9	9.2	1.3	.	0.69
O=c1c2ccccc2c(C=NCCO)c(O)n1-c1ccccc1	0.9	-3.2	-19	4.5	0.4	-1%	0.69
O=C(OCCn1c(=S)sc2ccccc21)c1ccccc1	.	.	2	.	2.1	-8%	.
COC(=O)c1sc(-c2ccccc2)cc1NC(=O)c1cc(OC)cc(OC)c1	-1.3	2.7	-1	-49	-1.6	-6%	0.72
COc1ccc(/C=C(\NC(=O)c2ccco2)C(=O)NCCc2nc3ccccc3[nH]2)cc1	0.4	6.3	-12	2.8	-1.1	2%	0.64
CCCN1CCN(C(=O)C(NC(=O)c2ccco2)C(C)C)CC1 (stereo not drawn)	0.1	-1.6	6	2.4	3.8	?	0.67
Cc1cc(NC(=O)CSc2nnc(C)c(=O)n2N)no1	0.5	3.8	1	4.6	0.1	-3%	0.74
CCN(CC)c1ccc(NC(=O)c2ccccc2F)cc1S(=O)(=O)Nc1ccccc1OC	0.7	3.6	22	4.5	0.8	-4%	0.69
NS(=O)(=O)c1ccc(CCNC(=S)NC(=O)c2ccccc2Br)cc1	-0.4	-4.0	-3	2.1	-0.9	-7%	0.7
CCOCC(=O)NCc1ccc2c(c1)OCO2	2.0	1.7	5	-1.7	1.7	-4%	0.77
Cc1cc(C)c(S(=O)(=O)N2CCc3ccccc32)c(C)c1	1.3	-17	-93	3.0	24	.	0.65
O=C(CSc1ccccc1)NCc1ccccn1	-0.5	-0.5	1	0.8	-3.6	-4%	0.74
Cc1cccc(-n2c(C)cc(/C=C3\C(=N)N4N=C(CC(C)C)SC4=NC3=O)c2C)c1	0.8	-1.3	-9	-112	2.4	3%	0.68
Cc1occc1C(=O)Nc1cccc([N+](=O)[O-])c1C	-0.3	11	1	3.9	5.8	22%	0.67
O=C(NC1CCCCC1)N1CCCCCC1	0.1	2.3	12	0.4	-0.1	0%	0.63
CCc1ccc(-n2c(SCC(=O)Nc3cccc(S(=O)(=O)NC4=NCCCCC4)c3)nc3ccccc3c2=O)cc1	0.2	2.6	14	6.6	1.2	.	0.75
O=C(O)CCN1C(=O)/C(=C\c2cccc(OCC(=O)Nc3ccc(Cl)cc3)c2)SC1=S	0.5	-7.5	9	16	-0.7	.	0.69
C/C(=N/NC(=O)CSc1nc2ccccc2s1)c1ccncc1	0.1	-3.5	-11	.	5.6	12%	.
CCc1ccc(-c2csc(-c3c[nH]c4ccccc34)n2)cc1	-0.1	-3.0	6	-5.2	6.2	.	0.71
CCN1CCN(c2nc3ccccc3nc2C(C#N)C(=O)OC2CCCCC2)CC1 (stereo not drawn)	.	.	6	0.6	14	-3%	0.68
O=C1c2ccccc2C(=O)N1c1ccc(Cc2ccncc2)cc1	0.4	1.0	-8	1.3	4.6	-2%	0.65
CC(=C\c1ccccc1)/C=C1/SC(=S)N(CCCC(=O)O)C1=O	0.8	3.2	5	14	5.2	2%	0.68
CC(=O)Nc1ncc(Cc2cccc(Cl)c2)s1	-0.7	5.4	-11	6.6	-0.6	.	0.64
Cn1cnc([N+](=O)[O-])c1Sc1nc(N)nc2c1ncn2Cc1ccccc1	.	.	-10	7.9	1.1	-6%	0.66
Cc1cc(C(=O)Nc2c(C)n(C)n(-c3ccccc3)c2=O)c(C)o1	0.6	-5.0	-2	-1.9	-0.9	-2%	0.74
CC(O)c1nc2cc([N+](=O)[O-])ccc2n1Cc1ccccc1 (stereo not drawn)	-0.2	1.9	-1	4.6	-1.6	.	0.69
O=C1/C(=C/c2cccnc2)Oc2cc(OS(=O)(=O)c3ccccc3)ccc21	-0.9	-1.8	31	3.3	-1.0	6%	0.75
CC(C)(C)c1ccc(OCC(=O)N2CCCCCC2)c(Br)c1	-0.9	1.2	0	3.3	3.6	.	0.69
CCC1CCCCN1C(=O)Cn1c(=O)n(CCC(=O)NCc2ccco2)c(=O)c2sccc21 (stereo not drawn)	-0.1	-0.5	4	1.0	2.8	?	0.66
O=C(N/N=C/c1ccccn1)c1ccc(N/N=C/c2ccccn2)cc1	0.3	2.8	1	.	0.1	-5%	.
Cc1cc(NC(=O)CSCC(=O)OCc2nnc(-c3ccc(F)cc3)o2)no1	-0.1	2.7	7	-0.2	4.0	.	0.72
CCCC(C(=O)NCC1CCCO1)N(C(=O)CNS(=O)(=O)c1ccccc1)c1ccc(F)cc1 (stereo not drawn)	-1.5	1.8	3	0.2	-0.4	-3%	0.65
Cc1cccc(Cn2cnc3ccccc32)c1	0.5	-1.4	-6	-0.6	-0.5	-5%	0.6
CC(=O)c1ccc(-c2cccc(-c3nc4ccccn4c3NC3CCCCC3)c2)cc1	-0.5	2.2	22	-1.6	-5.3	.	0.75
CCn1cc(C(=O)NCC(=O)NC(C)(C)CO)c(=O)c2cc3c(cc21)OCO3	-0.9	1.6	-6	-17	-3.3	0%	0.71
CCc1noc(C)c1C(=O)Nc1cc(S(=O)(=O)N2CCOCC2)ccc1OCC(F)(F)F	-1.0	-3.0	6	1.9	2.3	-3%	0.61
Nc1ccc(C(=O)Oc2ccc([N+](=O)[O-])cc2)c(O)c1	-1.1	0.7	.	.	.	30%	.
O=C(Cc1cc(=O)[nH]c(=O)[nH]1)NCc1ccc(Cl)cc1	1.9	-1.3	6	0.9	-0.8	.	0.72

The list goes on:
SMILES	A1 inh	LANA-H2B inh	B2AR ag	UCH37 DUB inh	HNF4A DNA FP	Vif TR-FRET	E coli growth
CS/C(=N/S(=O)(=O)c1ccc(C)cc1)c1ccccc1	2.3	-1.1	-3	.	4.2	.	.
O=C1CC(N2CCN(c3ccc(F)cc3)CC2)C(=O)N1c1ccccc1 (stereo not drawn)	-0.4	2.1	1	1.3	-0.3	-6%	0.65
COc1ccc(-n2nc(C(=O)NCc3cc(OC)ccc3OC)c3c4ccccc4n(C)c3c2=O)cc1	0.4	-3.1	3	-108	-6.1	.	0.74
CC(=O)c1c(C)[nH]c(C(=O)COC(=O)CCOc2ccc(C)cc2)c1C	0.5	-0.6	5	0.3	-2.8	.	0.66
Cc1nc2sccn2c(=O)c1Cl	1.1	1.1	-3	6.8	0.8	-2%	0.71
O=C(NCc1ccc(Cl)cc1)C(=O)NCC(c1ccco1)N1CCOCC1 (stereo not drawn)	2.0	0.7	-6	2.0	-0.1	.	0.65
CC(C)c1ccc(NC2CCCN(C(=O)c3ccoc3)C2)cc1 (stereo not drawn)	-0.5	2.8	4	-1.4	1.2	.	0.69
COc1ccc(-c2c(C#N)c(N)nc3c2CCCC3)cc1OC	0.2	5.5	-8	-64	-1.5	2%	0.72
CC(C(=O)OCC(=O)Nc1ccc(S(N)(=O)=O)cc1)N1C(=O)c2ccccc2C1=O (stereo not drawn)	1.1	0.1	-4	2.3	-1.4	-11%	0.7
Cn1c(/C=N/O)nc2ccccc21	-0.4	0.9	5	.	2.9	0%	.
COc1ccccc1N(C(=O)c1csnn1)C(C(=O)NC1CCCC1)c1ccccc1 (stereo not drawn)	0.5	-2.0	1	2.0	4.3	.	0.65
O=C(Cn1nc(Cc2ccncc2)c2ccccc2c1=O)N1CCN(C(=O)c2ccco2)CC1	-0.9	0.0	-4	1.0	2.4	1%&3%	0.72
Cc1ccnc(NC(=O)c2ccc(S(=O)(=O)c3ccccc3)cc2)c1	-1.1	-1.1	0	5.6	2.3	19%	0.71
CCCC(c1nnnn1CC1CCCO1)N1CCN(c2cc(Cl)ccc2C)CC1 (stereo not drawn)	1.1	-5.2	-10	0.6	0.2	2%&-4%	0.69
O=C(OCCOCn1cc(Br)c(=O)[nH]c1=O)c1ccccc1	0.2	7.8	-2	-2.5	5.3	.	0.66
Cc1ccc(Nc2ncccc2C(N)=O)cc1	-0.6	3.3	-11	7.0	0.3	-4%	0.69
Cc1c(C)c2ccc(OCC(=O)N[C@@H](Cc3c[nH]c4ccccc34)C(=O)O)cc2oc1=O	0.8	-1.8	-1	1.6	2.2	.	0.78
CCc1ccc(NC(=O)c2ccc(NC3=NC4CS(=O)(=O)CC4S3)cc2)cc1 (stereo not drawn)	0.1	4.9	6	1.6	5.0	.	0.66
Cc1ccc(NC(=O)CSc2ccc(-c3cccnc3)nn2)cc1Cl	0.8	-1.5	2	1.8	4.0	-54%	0.69
CCSc1nnc(NC(=O)c2c(C)noc2C)s1	-1.1	-3.2	3	0.9	-4.1	0%	0.71
CC(C)N1CC(C(=O)Nc2ccccc2)CC1=O (stereo not drawn)	-0.4	-8.3	2	4.3	-0.7	-1%	0.75
O=C(O)CCN1C(=O)NC2(CCCC2)C1=O	0.0	-2.7	7	1.9	6.5	-4%	0.72
CC(=O)N1CCc2cc(S(=O)(=O)NCCC(=O)Nc3cc(C)cc(C)c3)ccc21	-0.5	i	12	0.9	-0.8	92%	0.74
NC(=O)c1c(NC(=O)c2ccccc2C(=O)O)sc2c1CCCC2	0.7	-5.3	5	3.3	3.1	.	0.67
COc1cc(C2Nc3ccccc3C(=O)N2NS(C)(=O)=O)c([N+](=O)[O-])cc1OC (stereo not drawn)	0.4	5.3	-13	6.2	-1.6	-4%	0.67
O=C(CCCN1C(=O)c2cccnc2C1=O)Nc1ccccc1F	-0.1	-0.7	-1	2.9	0.9	.	0.72

Hits appear at their usual frequency (roughly 2.1% active in at least one column).
